Source: PubChem
RanGTP-Imp inh: disruptors of Ran-importin-beta complex formation – biochemical, FRET, CFP-Ran, YFP-importin-beta, homogeneous, primary screen. cell-free CFP-Ran/YFP-importin-beta FRET ratio. inhibition, % (no concentration beside the values). actives 1.1% (n = 300,000);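 active = most replicates above 15%; inconclusive = exactly half above 15%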;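 also: 0% = DMSO wells and 100% = Ran loaded with GDP instead of GTP; wells of about 40 µL received 100 nL stock; the first replicate is given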
Beta cell apopt: beta cell apoptosis inhibition. actives 0.8% (n = 300,000). AID 435005. protection from apoptosis, % (concentration not given with the values). INS-1E cytokine-induced death, ATP luminescence, 48 h; percent of positive-control rescue, neutral wells zero;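 active = all replicates at 75% or more, or half of them and the mean; inconclusive = half reach 75% but not the mean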;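 also: 0% = cytokine-treated negative control wells and 100% = positive control rescue; higher means more ATP so stronger rescue from cytokine killing; wells of about 40 µL received 100 nL stock; the first replicate is given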
Calb FLC: C. albicans growth modulation with fluconazole; C. albicans CaCi-2 (fluconazole-resistant clinical isolate) + fluconazole, Alamar Blue growth, 48 h; growth inhibition, % (no concentration beside the values); actives 0.57% (n = 300,000);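 active = most replicates above 75%; inconclusive = exactly half above 75%; inactive = most below 75%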;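 also: all wells also contain fluconazole at 8 µg/ml as a sub-toxic cotreatment; 0% = median of DMSO wells and 100% = median of geldanamycin control wells; wells of about 8 µL received 7.5 nL stock; the first replicate is given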
ALR inh: inhibitors of human sulfhydryl oxidase ALR | purified ALR, DTT oxidation, H2O2 HRP-luminol luminescence | inhibition, % (test concentration not listed) | actives 3.8% (n = 290,000) | AID 485317;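 active = mean and each replicate at 75% or more; inconclusive = only one of the two met; inactive = neither met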;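 also: stock transfer was 7.5 nL into about 7.5 µL; 0% = neutral wells and 100% = wells with inactivated enzyme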
Target sequence (P55789 whole entry, looked up): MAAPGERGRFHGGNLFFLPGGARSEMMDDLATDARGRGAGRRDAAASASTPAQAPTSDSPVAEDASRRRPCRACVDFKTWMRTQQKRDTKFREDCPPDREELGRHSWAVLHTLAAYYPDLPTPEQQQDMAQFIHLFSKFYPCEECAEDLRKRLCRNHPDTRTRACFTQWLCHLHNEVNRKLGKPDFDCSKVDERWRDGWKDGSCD
T cruzi inh: T. cruzi replication inhibition; T. cruzi beta-gal in NIH3T3, luminescence, 90 h; inhibition, % (concentration not given with the values); actives 1.4% (n = 300,000); AID 1885;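 active = mean inhibition across valid replicates above about 55%, limit read from the data; inconclusive = mean below that limit but half or more replicates reach it; inactive = mean below it, under half of replicates reach it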;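 also: signal also drops with host cell toxicity which is not excluded here; 0% = plate median of DMSO wells and 100% = zero luminescence signal; higher percent means less beta-gal luminescence so fewer parasites; stock transfer was 50 nL into about 50 µL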
Ecoli rRNA inh: inhibitors of bacterial rRNA selective over humanized ribosomes | E. coli WT GFP vs humanized-ribosome RFP mutants, fluorescence, 24 h; active compounds read low; DMSO median 0, no signal -100 | GFP signal change (wild-type ribosome), % (concentration not given with the values) | actives 1.6% (n = 350,000);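 active = significant combined selectivity score with lowered wild-type GFP, culture density cut under 30%, mutant RFP and density less affected; inactive = any of these conditions unmet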; also: one replicate is shown; some compounds called inactive have numbers as strong as hits
AF4-AF9 inh: blocks AF4 peptide binding to human AF9; P42568; AlphaScreen, biotin-AF4 peptide binding to FLAG-AF9; actives 0.47% (n = 350,000); inhibition, % at 10 µM;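 active = every replicate reaching a set inhibition limit, whatever the replicate mean, cut at about 25% in these data; inconclusive = mean inhibition reaches that limit but some replicates miss it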;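 also: 0% = plate neutral control median and 100% = total signal loss; the record names both 10 and 1 µM as test concentration; the first replicate is given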
Target sequence (P42568 whole entry, looked up): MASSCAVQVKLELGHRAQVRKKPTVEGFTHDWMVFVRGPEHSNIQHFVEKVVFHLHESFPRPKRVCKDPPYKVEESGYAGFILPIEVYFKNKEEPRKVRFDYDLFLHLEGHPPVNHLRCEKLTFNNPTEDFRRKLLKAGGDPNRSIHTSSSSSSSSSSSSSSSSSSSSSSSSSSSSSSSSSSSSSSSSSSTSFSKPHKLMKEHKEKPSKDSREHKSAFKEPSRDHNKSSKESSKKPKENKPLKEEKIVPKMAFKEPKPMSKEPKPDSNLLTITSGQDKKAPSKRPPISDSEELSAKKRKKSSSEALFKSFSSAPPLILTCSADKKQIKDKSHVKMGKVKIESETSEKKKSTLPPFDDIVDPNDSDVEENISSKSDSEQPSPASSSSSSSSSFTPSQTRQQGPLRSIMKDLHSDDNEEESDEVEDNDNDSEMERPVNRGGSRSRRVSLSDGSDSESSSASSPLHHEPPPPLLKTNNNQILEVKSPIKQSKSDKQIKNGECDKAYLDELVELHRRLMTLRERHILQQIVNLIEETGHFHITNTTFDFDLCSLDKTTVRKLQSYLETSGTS
FGF22 binding: shifts melting point of recombinant human FGF22. Q9HCT0. recombinant FGF22 thermal shift, SYPRO orange fluorescence; percent of sucrose octasulfate shift, DMSO zero. calls only at 9.99 µM. actives 1.5% (n = 340,000). AID 651658;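 active = melting point raised past a set limit in the mean and every replicate; inconclusive = no clear call; three in four hits are not shown here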
Target sequence (Q9HCT0 whole entry, looked up): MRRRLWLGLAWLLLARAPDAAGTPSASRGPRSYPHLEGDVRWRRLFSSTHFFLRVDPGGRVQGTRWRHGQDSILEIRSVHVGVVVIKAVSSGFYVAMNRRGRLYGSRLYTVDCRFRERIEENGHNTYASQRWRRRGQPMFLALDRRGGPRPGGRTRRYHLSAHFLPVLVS
Ecoli rRNA inh OD600: further read-out of Ecoli rRNA inh, marked with its call; OD600 change, %; measured here: OD600 growth;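 optical density of the mix in the first replicate; 0 = DMSO median and -100 = no signal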
Ecoli rRNA inh RFP: second read-out of Ecoli rRNA inh, no call of its own (marks repeat the call); RFP signal change, %; measured here: RFP humanized mutant strains;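 first replicate; 0 = DMSO median and -100 = no signal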
* hit, by the source's call; i = inactive; ? = inconclusive; / = not tested or not shown. This is a subset; rates above refer to the full screens.

SMILES	RanGTP-Imp inh	Beta cell apopt	Calb FLC	ALR inh	T cruzi inh	Ecoli rRNA inh	Ecoli rRNA inh OD600	Ecoli rRNA inh RFP	AF4-AF9 inh	FGF22 binding
CC1CC(=O)Nc2ccccc2N1C(=O)CN1C(=O)C(=O)N(C)C1=O (centres undefined)	/	-4	/	-5	/	10	11	-0.1	2.0	/
COc1cc(OC)cc(-c2nn[nH]n2)c1	2.0	-6	-6	1	12	/	/	/	/	/
CSc1ccc(S(=O)(=O)N2CCC(C(=O)N3CCc4ccccc4C3)CC2)cc1	0.7	6	1	-6	19	-1	-12	1.7	2.1	i
O=C(CCS(=O)(=O)c1ccc(F)cc1)Nc1nnc(-c2ccco2)o1	?	/	8	-16	-10	7	4	-0.5	-0.1	i
C/C(Cc1ccccc1)=N\NC(=O)CNC(=O)/C=C\c1ccccc1	?	-3	3	-1	1	10	10	0.3	-0.3	i
COc1ccc(-c2ccc(SCC(=O)NC3CCCCC3)nn2)cc1	-1.1	-1	-7	-4	-4	8	13	-1.8	2.4	i
NC(=O)Nc1ccc(C(=O)OCC(=O)Nc2cccc(S(=O)(=O)NC3=NCCC3)c2)cc1	/	-1	/	12	/	18	18	-1.9	0.2	i
CCOC(=O)N/N=C(/C)c1ccc(N2C(=O)C3CCCCC3C2=O)cc1 (centres undefined)	1.6	-6	1	-2	-1	15	8	0.5	-1.4	i
Cc1onc(-c2ccccc2Cl)c1C(=O)N1CCN(C(=O)c2ccco2)CC1	2.8	-2	-4	51	-6	/	/	/	/	/
O=C(NC1CCCCC1)c1cc(-c2ccccn2)nc2ccccc12	4.1	-4	0	-8	6	5	7	1.9	-1.6	i
O=C(CSc1nnc(COc2ccccc2)o1)N1CCCC1	-2.3	0	6	-3	2	5	5	-1.1	-2.1	i
CCOCCCNC(=O)C(NC(=O)c1ccccc1O)c1ccccc1 (centres undefined)	2.5	-1	9	4	-6	8	-3	-2.0	0.8	i

The closing 2 compounds of the section before open the next one:
SMILES	RanGTP-Imp inh	Beta cell apopt	Calb FLC	ALR inh	T cruzi inh	Ecoli rRNA inh	Ecoli rRNA inh OD600	Ecoli rRNA inh RFP	AF4-AF9 inh	FGF22 binding
O=C(CSc1nnc(COc2ccccc2)o1)N1CCCC1	-2.3	0	6	-3	2	5	5	-1.1	-2.1	i
CCOCCCNC(=O)C(NC(=O)c1ccccc1O)c1ccccc1 (centres undefined)	2.5	-1	9	4	-6	8	-3	-2.0	0.8	i
O=C(CSc1nc2cc([N+](=O)[O-])ccc2n1-c1ccccc1)NCc1ccc2c(c1)OCO2	-2.9	4	0	?	8	11	2	3.8	1.2	i
C/C(=N\Nc1ccc(C(=O)O)cc1)c1ccc(S(=O)(=O)NCc2ccco2)cc1	8.8	-1	-2	52	1	-8	-12	1.7	13	i
COc1ccc(CN(C(=O)CNC(=O)c2ccco2)C(C(=O)NCC2CCCO2)c2ccccc2)cc1 (centres undefined)	1.6	-6	-4	/	-4	0	2	0.2	2.2	i
O=C(NCc1ccc(Cl)cc1)Nc1ccc(F)cc1	0.4	-8	-36	-12	-4	4	1	-0.8	1.4	i
CCCn1c(N2CCN(C(=O)N3CCCCC3)CC2)nc2ccccc21	-3.1	3	25	/	-2	/	/	/	/	/
COC(=O)c1c(C)[nH]c(C(=O)/C=C/c2ccccc2Cl)c1C	0.2	2	-11	0	-9	4	0	-0.3	-4.0	i
CC(Oc1ccc(F)cc1)C(=O)Nc1sc2c(c1C(=O)NCc1cccnc1)CCCC2 (centres undefined)	?	7	24	-2	45	/	/	/	/	/
FC(F)(F)C(Oc1nc(Nc2ccc(Cl)cc2)nc(N2CCOCC2)n1)C(F)(F)F	-0.1	5	-2	-9	38	14	16	3.3	/	/
Cc1cc(C(=O)OC2CCOC2=O)c2ccccc2n1 (centres undefined)	2.2	-11	-13	-3	-15	/	/	/	/	/
N#CC1=C(N)Oc2cc(N)ccc2C1c1ccc(Cl)cc1 (centres undefined)	61*	0	17	57	7	-13	-8	31	3.6	i
CCCCCCN=CC1=C(O)C(C(=O)OC)C(C)(C)CC1=O (centres undefined)	-3.1	-2	0	/	2	/	/	/	/	/
Cc1ccc(S(=O)(=O)N(C)CC(=O)Nc2nnc(CC(C)C)s2)cc1	2.4	-5	2	-5	5	-19	-16	-1.8	-1.6	i
O=C(c1ccc(F)cc1)C(CN1CCOCC1)c1ccccc1 (centres undefined)	-3.5	/	3	7	58*	6	-6	1.9	12	i
Cn1c(N)c(C(=O)/C=C/c2ccccc2)c(=O)[nH]c1=O	1.8	1	/	-35	-15	4	10	5.4	1.5	i
CCCc1cc(=O)[nH]c(SCCOC(=O)c2ccccc2)n1	4.9	-1	-4	-10	-15	/	/	/	/	/
Nc1c(C(=O)Nc2cccc(F)c2)nnn1-c1ccc2c(c1)OCCO2	-1.1	5	-13	1	23	1	3	-2.7	-1.6	i
CCC(C)NC(=O)CCn1c(-c2ccccc2)cc(C(C)=O)c1C (centres undefined)	0.2	-1	2	-4	-3	/	/	/	/	/
COc1ccc(CCCc2nnc(SCC(=O)Nc3cccc(C)c3)o2)cc1	-2.1	-10	-9	-5	-11	-23	-21	-6.0	2.4	i
Cn1cc(P(=O)(N2CCOCC2)N2CCOCC2)cc1P(=S)(N1CCOCC1)N1CCOCC1	0.5	-3	-8	/	-5	3	10	1.7	-9.7	i
COc1ccc(OC)c(NC(=O)CSc2nnc(-c3ccncc3)s2)c1	-1.3	/	0	-1	-1	-3	0	-2.4	-0.2	i
Cc1cnc(C(=O)NC(Cc2ccccc2)c2ccccc2)cn1 (centres undefined)	-1.2	1	5	0	-11	4	8	0.5	-1.8	i
CCOc1cc(N2CCOCC2)c(OCC)cc1NC(=O)CN1CCc2ccccc2C1	1.9	4	2	14	3	/	/	/	/	/
O=C1c2ccccc2C(=O)C12OC2c1ccc(Cl)cc1 (centres undefined)	0.0	5	16	/	-7	/	/	/	/	/
O=C(Nc1cccc(Cl)c1)N1CCCCCC1	-2.0	-9	19	-4	-17	2	1	-2.4	2.8	i
COc1ccccc1C(=O)N1CCN(S(=O)(=O)c2ccccc2)CC1	2.2	-7	-4	6	6	/	/	/	/	/
O=C1/C(=C/c2cccs2)Cc2ccccc21	-3.0	-4	5	-1	-1	/	/	/	/	/
O=S(=O)(Nc1cccc(Oc2ccc(Cl)cc2)n1)c1ccc(F)cc1	1.7	-1	15	-3	-1	-19	-39	9.5	/	/
Cc1cc(NC(=O)CN2CCN(C/C=C/c3ccccc3)CC2)c([N+](=O)[O-])cc1C	-2.6	-4	-10	-15	19	/	/	/	/	/
O=[N+]([O-])c1ccccc1NC1CCN(Cc2ccccc2)CC1	-4.5	-9	-10	-10	4	3	5	0.9	14	/
Cc1noc(C)c1C(=O)OCC(=O)NC(=O)NC12CC3CC(CC(C3)C1)C2	-3.0	-2	-9	1	-9	/	/	/	/	/
CS(=O)(=O)N1CCc2cc(C(=O)N3CCOCC3)ccc21	1.3	/	-4	-6	9	/	/	/	/	/
CCOC(=O)c1nn(-c2ccc3c(c2)OCO3)cc1O	-0.4	-8	-7	94*	-1	/	/	/	/	/
COc1ccc(OC(=O)/C=C/c2ccc([N+](=O)[O-])cc2)cc1	-2.5	-3	-11	-4	2	7	9	-2.0	0.9	i
CCN(CC)c1ccc(CNC23CN4CN(CN(C4)C2)C3)cc1	-4.4	0	-11	98*	-8	/	/	/	/	/
C[N+](C)(C)CCCCCC[N+](C)(C)C	-1.5	-2	-4	4	-5	0	2	0.0	1.5	i
Cc1nn(-c2ccccc2)nc1-c1nnc(-c2ccc(C(F)(F)F)cc2)o1	4.2	-8	4	2	-12	10	11	-3.8	/	i
O=C(Nc1ccccc1)c1ccc2ccccc2n1	-1.3	-1	-33	-1	-16	22	27	0.8	7.3	i
COc1ccc(-c2nnc(-c3ccccc3)o2)cc1OC	-4.5	/	6	7	-6	2	12	-0.6	-1.2	i
CC1CCCN(C(=O)CSc2nnc(-c3cccs3)o2)C1 (centres undefined)	1.2	1	-1	/	8	0	1	2.0	1.5	i
Cc1ccc(C(=O)NNC(=O)c2nn(-c3ccc(F)cc3)ccc2=O)cc1	-1.3	/	13	-2	2	9	10	1.0	-7.4	i
NCc1c(O)ccc2ccccc12	1.1	-2	9	/	-2	4	8	0.5	-2.4	i
O=C(CSc1ccc2ccccc2c1)Nc1ccncc1	4.8	-9	-29	-17	-5	-50	-75	-30	10	i
Cc1ccc(/C=C2\SC(=S)N(CCCC(=O)Nc3cc(C)on3)C2=O)cc1	1.2	-7	5	-3	-19	16	19	2.9	-1.5	i
COC(=O)CNC(=O)CCC(=O)N1CCN(C(c2ccccc2)c2ccccc2)CC1	1.5	-4	28	0	-5	-1	-6	-1.9	-10	i
COc1ccc(CN2CCNC(=O)C2CC(=O)NCCCn2cccn2)c(OC)c1 (centres undefined)	2.3	-1	-11	-6	-25	14	15	-1.3	-0.3	i
CCOC(=O)C1(Cc2ccc(OC)cc2)CCN(C(=O)CN2CCN(CC)CC2)CC1	-1.1	-5	-2	-6	10	/	/	/	/	/
O=C(NCCc1ccco1)c1nn(Cc2ccccc2)c(=O)c2ccccc12	1.6	1	-1	-1	8	/	/	/	/	/
O=C(c1ccccc1Br)N1CCN(c2ccccc2)CC1	4.2	-12	-22	?	7	/	/	/	/	/
O=c1oc2ccccc2c(N2CCCCC2)c1CN1CCCCC1	-1.8	4	?	13	3	/	/	/	/	/
CC(C)NC(=O)NS(=O)(=O)c1cnccc1N1CCCCC1	-3.9	-4	-7	/	1	/	/	/	/	/
O=C(CCC(=O)c1cccs1)OCc1nc2ccccc2s1	-3.0	3	5	-4	-6	/	/	/	/	/
CS(=O)(=O)N1CCN(C(=O)c2cc(-c3cccs3)nc3ccccc23)CC1	1.8	0	-7	/	-1	/	/	/	/	/
O=C(NCc1ccccc1F)C1CCCN(S(=O)(=O)N2CCOCC2)C1 (centres undefined)	3.9	-4	-3	-12	-17	14	12	1.8	0.2	i
O=C(c1cccs1)N1CCN(C(=O)c2cn(-c3ccccc3)nc2-c2ccccc2)CC1	/	-1	/	/	/	-1	-14	19	1.7	i
COc1ccc(NC(=S)N(CCN2CCOCC2)Cc2ccccc2F)cc1	/	0	6	-5	/	3	5	0.8	-7.5	i
COc1cc2c(cc1OC)C1=C(C#N)CCC(=NC(=O)c3ccc(Cl)cc3)N1CC2	-0.4	-2	-12	52	-5	/	/	/	/	/
COc1ccccc1C(=O)n1nc(-c2cccnc2)nc1N	-0.9	/	2	/	0	7	11	-3.6	2.1	i
CCCOCC1CC2(CC(C)(c3csc(N)n3)OC2=O)C(=O)O1 (centres undefined)	1.6	-3	5	-2	5	/	/	/	/	/
c1ccc2c(c1)ncn2-c1ncnc2sc3c(c12)CCCC3	-1.4	-8	3	-8	-27	/	/	/	/	/
O=C(c1cccs1)N(Cc1ccco1)c1nc(-c2ccc(F)cc2)cs1	-0.1	5	14	0	38	/	/	/	/	/
